Assay outcomes: PubChem BioAssay, National Center for Advancing Translational Sciences (NCATS)
HSD17B inh – HSD17B dehydrogenase inhibition | recombinant HSD17B10, NADH fluorescence kinetic; many of its hits are not listed in these tables | AID 893 | Q99714 | Potency, µM (series often up to 57.1 µM), for inactives: at the top dose activity change, negative = inhibition, hits mostly inhibitors | 75,000 compounds, 7.6% hits; active means well fitted inhibition curve with a large enough effect; inconclusive means small, poorly fitted or top-dose-only effect; inactive means no such curve, though single readings can be large or run the other way;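 further: the protocol describes HADH2 (HSD17B10) and not the HSD17B4 of the title; nearly all actives have a fitted effect of over 70% in size; most hits overshoot -100% by far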
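20 nM HADH2, pH 9.0 Tris/Tween; cpd preinc 15 min RT; start w/ 1 mM NAD+ + 90 uM b-hydroxybutyryl-CoA; kinetic fluor ex360/em450 q30s x 4 min; delta last-first.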
The depositor's hits bear a star; ? = inconclusive; [ ] = another dose, or the depositor's remark. On the % scale 0 is the no-effect control and ±100 the full control effect; potency means the concentration at half of the fitted maximal effect. An excerpt; count on the stated rates, not on these rows.

entry	structure	HSD17B inh
1	CCCC1(C(=O)OC)NC(c2ccc(OC)c(OC)c2)C2C(=O)N(c3ccc4c(c3)OCO4)C(=O)C21 (stereo unspecified)	-3%
2	OCC(O)C(O)C(O)C(O)C(O)CO (stereo unspecified)	-7%
3	Cc1ccc(-c2nc3cc(NC(=O)C(C)C)ccc3o2)cc1	16µM*
4	c1ccc2c(c1)CCCN2c1nc2ccccc2n2cnnc12	-5%
5	O=C1C=C[C@@H](O)[C@H]2[C@@H]3C(=O)N(c4cccc(Oc5ccccc5)c4)C(=O)[C@@H]3CC[C@H]12	-3%[11.4 µM]
6	CCC1=C(OC(=O)N(CC)CC)N2C(=O)OC(=NCC(=O)OC)[C@]2(C)[C@H]2C1=CC[C@H]1C(=O)NC(=O)[C@H]12	1%
7	CC(C)COC(=O)C(C#N)c1nc2ccccc2nc1N1CCN(Cc2ccccc2)CC1 (stereo unspecified)	?
8	O=C(NC1CCCCC1)C(c1ccco1)N(C(=O)c1csnn1)C1CCCC1 (stereo unspecified)	6%
9	Cn1c(/N=C/c2c[nH]c3ccccc23)nc2ccccc21	0%
10	COc1ccc(C2C(C#N)=C(N)Oc3cc4c(cc32)OCO4)cc1 (stereo unspecified)	-12%
11	Cn1c(=O)c(C(=O)Nc2cccnc2)c(O)c2ccccc21	3%
12	CCn1cc(C(=O)NCc2ccc3c(c2)OCO3)c(=O)c2ccc(C)nc21	-3%
13	N#CCCN1CCN(C(=S)c2ccc(-c3ccc(Cl)c(Cl)c3)o2)CC1	-24%
14	O=C(NC1CCCCC1)N1CCN(CCc2ccccc2)CC1	-17%
15	O=S(=O)(c1ccccc1)N1CCC2(CCCN(c3ccncc3)C2)CC1	5%
16	Cc1[nH]c2c(C)cccc2c(=O)c1Br	23%
17	CN1CCN(CC(=O)N2c3ccccc3Sc3cc4ccccc4cc32)CC1	4%[11.4 µM]
18	CCOC(=O)c1cccc(NC(=O)CSc2nnnn2CC)c1	8%
19	Cc1ccc(Cn2c(CN3CCN(C(=O)c4ccco4)CC3)nc3c2c(=O)n(C)c(=O)n3C)cc1	-6%
20	O=C(Cn1nc(Cc2cccnc2)c2ccccc2c1=O)N1CCN(c2ccccn2)CC1	?

Structures listed so far that have four or more nitrogen atoms (eight):
entry	structure	HSD17B inh
4	c1ccc2c(c1)CCCN2c1nc2ccccc2n2cnnc12	-5%
6	CCC1=C(OC(=O)N(CC)CC)N2C(=O)OC(=NCC(=O)OC)[C@]2(C)[C@H]2C1=CC[C@H]1C(=O)NC(=O)[C@H]12	1%
7	CC(C)COC(=O)C(C#N)c1nc2ccccc2nc1N1CCN(Cc2ccccc2)CC1 (stereo unspecified)	?
8	O=C(NC1CCCCC1)C(c1ccco1)N(C(=O)c1csnn1)C1CCCC1 (stereo unspecified)	6%
9	Cn1c(/N=C/c2c[nH]c3ccccc23)nc2ccccc21	0%
18	CCOC(=O)c1cccc(NC(=O)CSc2nnnn2CC)c1	8%
19	Cc1ccc(Cn2c(CN3CCN(C(=O)c4ccco4)CC3)nc3c2c(=O)n(C)c(=O)n3C)cc1	-6%
20	O=C(Cn1nc(Cc2cccnc2)c2ccccc2c1=O)N1CCN(c2ccccn2)CC1	?

(continued)
entry	structure	HSD17B inh
21	c1ccc(-c2csc(-c3nc4ccccc4[nH]3)n2)cc1	7.9µM*
22	Nc1nc(SCC(=O)NCCCO)nc2sc3c(c12)CCC3	-2%
23	O=S(=O)(NCc1cccnc1)c1cccc2cccnc12	6%
24	CC(=O)Nc1cccc(N(C)S(C)(=O)=O)c1	1%
25	COc1ccc(CCNC(=O)CCn2c(SCC#N)nc3ccccc3c2=O)cc1OC	1%
26	CC(Cc1cccs1)NC(=O)Nc1ccccc1 (stereo unspecified)	-3%
27	COc1ccc2nc3c(c(-c4ccccc4)c2c1)CCC3	13µM*
28	COc1ccc(CNC(=O)C2CC(c3ccc(OC)cc3)=NO2)cc1 (stereo unspecified)	13%
29	CCOC(=O)c1c(C)c(C(=O)O)n(C)c1C	2%
30	COC(=O)c1ccccc1S(=O)(=O)N(Cc1cc2cc3c(cc2[nH]c1=O)OCO3)C1CCCCC1	?

Overlap with the part before: two entries; new compounds follow.
entry	structure	HSD17B inh
29	CCOC(=O)c1c(C)c(C(=O)O)n(C)c1C	2%
30	COC(=O)c1ccccc1S(=O)(=O)N(Cc1cc2cc3c(cc2[nH]c1=O)OCO3)C1CCCCC1	?
31	Cc1ccc(C(=O)CSc2nnc(-c3cccnc3)n2N)cc1	-7%
32	CN(C)c1ccc(-c2ccc3ncnc(-n4ccnc4)c3c2)cc1	2%
33	Cn1c(CNc2ccccc2)nc2ccccc21	3%
34	Cc1noc(C(=O)Nc2c(C)nn(Cc3ccccc3)c2C)c1Cl	7%
35	O=C(Nc1nccs1)C12CC3CC(C1)CC(C(=O)Nc1nccs1)(C3)C2	1%
36	CCN(CC)S(=O)(=O)c1cccc(-c2nnc(C(=O)c3ccc(C(F)(F)F)cc3)o2)c1	-4%
37	CCCCOC(=O)c1ccc(NC(=O)C(CCS(C)(=O)=O)NC(C)=O)cc1 (stereo unspecified)	17%
38	COc1ccccc1NC(=O)Cn1cnc2c1c(=O)n(C)c(=O)n2C	5%
39	O=c1[nH]c(-c2cccs2)nc2ccccc12	-3%
40	C=CCn1c(SCC(=O)c2cc(C)n(CC3CCCO3)c2C)nnc1-c1ccccc1 (stereo unspecified)	3%

Already shown: five of the compounds above.
entry	structure	HSD17B inh
31	Cc1ccc(C(=O)CSc2nnc(-c3cccnc3)n2N)cc1	-7%
32	CN(C)c1ccc(-c2ccc3ncnc(-n4ccnc4)c3c2)cc1	2%
33	Cn1c(CNc2ccccc2)nc2ccccc21	3%
34	Cc1noc(C(=O)Nc2c(C)nn(Cc3ccccc3)c2C)c1Cl	7%
35	O=C(Nc1nccs1)C12CC3CC(C1)CC(C(=O)Nc1nccs1)(C3)C2	1%

Next part.
entry	structure	HSD17B inh
41	O=C1c2ccccc2C(Cc2ccncc2)(Cc2ccncc2)c2ccccc21	-12%
42	CCOC(=O)C1=C[C@@]2(CC)CCCN3CCc4c(n1c1ccccc41)C32 (stereo partly specified)	4%
43	c1ccc(N=P(N2CCOCC2)(N2CCOCC2)N2CCOCC2)cc1	2%
44	O=C(CN1C(=O)C2CCCCN2C(=O)c2ccccc21)N1CCCc2ccccc21 (stereo unspecified)	-1%
45	Cc1ccc(C(=O)N2CCN(C3CCCCC3)CC2)s1	-7%
46	O=C(Cl)c1c(Cl)cccc1Cl	1%
47	Cc1csc(NC(=O)c2cccc(Cn3nc(C)c(Br)c3C)c2)n1	-9%
48	COC(=O)CSc1nnc(CNC(=O)c2cccc(C)c2)n1-c1ccccc1OC	2%
49	Cn1c(=O)c2c(nc(CN3CCN(c4ccccc4)CC3)n2CCN2CCOCC2)n(C)c1=O	6%
50	Cc1cccc(NC(=O)c2cc3c(n(-c4ccccc4)c2=O)CCCC3=O)n1	6%
51	Cn1nnnc1SCC(=O)Nc1ccc(Oc2ccccc2)cc1	4%
52	Nc1nc(-c2ccc3c(c2)OCCO3)cs1	-12%
53	CCOCCOC(=O)C1=C(C)N(C)C(=O)NC1c1cc(Cl)c(O)c(OCC)c1 (stereo unspecified)	-1%
54	O=C(Nc1ccccc1)N1CCn2c(nc3ccccc32)C1	7%
55	C#CCn1cnc2c(cnn2-c2ccc(C)c(C)c2)c1=O	-16%
56	CN(C)c1ccc(-c2cncnc2-n2ccnc2)cc1	?
57	COc1ccc(CCNc2oc(-c3ccc(OC)c(OC)c3)nc2C#N)cc1	25µM*
58	[N-]=[N+]=Nc1ccc(C(=O)CSC[C@@H](NC(=O)CC[C@@H](N)C(=O)O)C(=O)NCC(=O)O)cc1	-12%
59	COc1cccc(-c2ccc3ncnc(N4CCOCC4)c3c2)c1	5%
60	C=CC(O)(C#CCN(CC)CC)c1ccccc1 (stereo unspecified)	5%
61	Cc1c(Cc2ccccc2)sc(N)c1C(N)=O	-30%
62	CN1C[C@@H]2C(c3ccc(Cl)nc3)C3(c4cccnc4)CC2(C3)[C@H]1c1ccccc1 (stereo partly specified)	7%
63	O=C(CCCN1C(=O)c2cccnc2C1=O)N1CC(=O)N(CCc2ccccc2)C(=O)C1	6%
64	Cc1c(Cl)cccc1NC(=O)Cn1cccc1	11%
65	CCCc1cc(C(=O)NCc2ccccc2)no1	4%
66	O=C(CSc1nnc(COc2cccc3cccnc23)o1)N1CCc2ccccc21	4%
67	O=C1Nc2cc(C(=O)N3CCOCC3)ccc2SC1N1CCOCC1 (stereo unspecified)	-6%
68	CC(=O)Nc1ccc(C(=O)c2ccccc2)cc1	2%
69	Cn1c(=S)n(/N=C/c2ccc3c(c2)OCO3)c2ccccc21	-9%
70	Cc1nn(Cc2ccc(C(=O)Nc3nccs3)cc2)c(C)c1Cl	-14%
71	O=C(NCCCN1CCN(CCCNC(=O)c2ccc3c(c2)OCO3)CC1)c1ccc2c(c1)OCO2	1%
72	CCOC(=O)c1cnn2c(C)cc(-c3ccc(F)cc3)nc12	32µM*
73	Cc1noc(C)c1C(=O)OCC(=O)NCCC1=CCCCC1	-2%
74	Cn1c(CN2CCCCC2)nc2cc(NC(=O)c3cccs3)ccc21	3%
75	CC(C)n1c(SCC(=O)NCc2ccco2)nc2c1c(=O)n(C)c(=O)n2C	-4%
76	COCCNC(=O)CCCn1c(=O)c2ccccc2n(CC(=O)NCCC2=CCCCC2)c1=O	0%
77	COc1ccc(Cl)cc1S(=O)(=O)n1nnc2ccccc21	1%
78	COC(=O)NCC(c1cccnc1)N1CCN(c2ccccc2OC)CC1 (stereo unspecified)	18%
79	Cc1nc(SCc2ccccc2C)n[nH]1	5%
80	Cc1nc(-c2cccc(S(=O)(=O)N3CCOCC3)c2)cs1	?

3 entries from above, as labelled records:
74. Cn1c(CN2CCCCC2)nc2cc(NC(=O)c3cccs3)ccc21
  HSD17B inh: 3%

75. CC(C)n1c(SCC(=O)NCc2ccco2)nc2c1c(=O)n(C)c(=O)n2C
  HSD17B inh: -4%

76. COCCNC(=O)CCCn1c(=O)c2ccccc2n(CC(=O)NCCC2=CCCCC2)c1=O
  HSD17B inh: 0%

Remaining list, next part
entry	structure	HSD17B inh
81	Cc1ccccc1CN(c1ccc(C(N)=O)cc1)S(C)(=O)=O	10%
82	Cc1nc2c(C(=O)NCc3ccco3)cnn2c(C)c1Cc1ccc(F)cc1Cl	32µM*
83	O=C(c1ccco1)N(Cc1nc2ccccc2c(=O)[nH]1)C1CCCC1	3%
84	O=c1c2ccccc2nc2n1CCC2	?
85	CCCCSc1nnc(CCC)n1N	-9%
86	CCOC(=O)C1=C(CNCc2ccc(C)cc2)NC(=O)NC1c1ccc(OC)cc1 (stereo unspecified)	-1%
87	O=C(c1cc2c(s1)CCCC2)n1cccn1	32µM*
88	CCOC(=O)c1c(C)[nH]c(C(=O)CN2C(=O)NC(C)(c3ccc(C)cc3)C2=O)c1C (stereo unspecified)	1%
89	CC1C(=O)CCC1(C(=O)O)c1ccccc1 (stereo unspecified)	1%
90	Cc1cccc(C)c1NC(=O)CSc1nnc(-c2ccncc2)n1Cc1ccco1	13%
91	COc1ccc(COC(=O)N/N=C2/C[C@@H](O)[C@@H](O)[C@@H]3[C@@H]4C(=O)N(C(C)(C)C)C(=O)[C@H]4CC[C@H]23)cc1	5%[11.4 µM]
92	COc1cccc(C(=O)N2CCN(Cc3ccccc3C(F)(F)F)CC2)c1	-1%
93	CC(C)N=C(NC#N)SCC(=O)NC(C)(C)C	-4%
94	O=C1C=C(NCCN2CCOCC2)CC(c2ccccc2)C1 (stereo unspecified)	10%
95	O=C(O)CNS(=O)(=O)c1cc(Cl)c(Cl)cc1Cl	5%
96	C/C(N)=C(/C#N)C(=O)COC(=O)C1Cc2ccccc2CN1S(C)(=O)=O (stereo unspecified)	-15%
97	Cc1cc(NC(=O)c2cc(CC(C)C)on2)no1	-1%
98	Clc1ccccc1OCc1nn2c(-c3ccncc3)nnc2s1	-9%
99	CSCCC(C(=O)Nc1ccc2c(c1)OCO2)N1C(=O)c2ccccc2C1=O (stereo unspecified)	-3%
100	CCN1CCN(CCCNC(=O)c2ccc3c(c2)NC(=O)c2ccccc2S3)CC1	0%
101	CC(=O)N1CCc2cc(S(=O)(=O)N3CCc4ccccc4C3)ccc21	5%
102	CCCS(=O)(=O)N1CCC(C(=O)N2CCN(Cc3ccccc3)CC2)CC1	8%
103	CCOCCCNS(=O)(=O)c1ccc2c(c1)CCN2C(C)=O	6%
104	COc1cc(C(=O)Nc2cccc(-c3nc4cc(C)ccc4o3)c2C)cc(OC)c1OC	2%
